# Source: PubChem (Broad Institute)
# DUX4 txn inh: inhibitors of DUX4-driven ZSCAN4 reporter expression, primary screen, 293T cells, Gaussia and Italica luciferase. 293T-iDUX4 ZSCAN4-Gaussia luciferase reporter, 24 h; hits give low values. actives 0.8% (n = 37,000). activity change, negative = inhibition, % (concentration not given with the values);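 active means -10% or lower and over 25 points stronger than a control reporter; inconclusive means -10% or lower with a smaller gap; inactive means above -10%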;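 further: 0% = median of neutral control wells and -100% = median of positive control wells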
# DUX4 txn inh difference: also measured in DUX4 txn inh; calls as there; Gaussia minus Italica difference, %; measured here: selective DUX4 reporter inhibition;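 worked out from the two reporters; negative = selective loss of the DUX4 reporter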
# DUX4 txn inh control: recorded beside DUX4 txn inh, whose call it bears; activity change, negative = inhibition, %; measured here: Italica tet-on control reporter;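 0 = neutral control and -100 = positive control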
# * marks the source's active call; other numbers are inactive results; ? = inconclusive; . = no result given; & = joins results of further samples.
SMILES,DUX4 txn inh,DUX4 txn inh difference,DUX4 txn inh control
CCCC#Cc1ccc([C@@H]2[C@@H](CO)N3CCCCN(C(=O)c4ccc5c(c4)OCO5)C[C@@H]23)cc1,2.3,-4.9,7.2
N#Cc1cccc(-c2ccc3c(c2)[C@H]2[C@H](CCN2C(=O)c2ccc4c(c2)OCO4)[C@@H](CO)N3)c1,?,.,.
C/C=C/c1ccc([C@@H]2[C@@H](C#N)N(C(=O)c3cccnc3)[C@@H]2CO)cc1,-2.3,-1.9,-0.4
CCS(=O)(=O)N[C@@H]1CC[C@@H](CC(=O)NCc2ccc(Cl)cc2)O[C@@H]1CO,2.4,0.2,2.2
O=C(Cc1cccnc1)N1CC2(C1)[C@@H](c1ccccc1)[C@@H](CO)N2C(=O)C1CCCC1,-4.8,-7.0,2.2
Cc1cccc(S(=O)(=O)N2CCCCN3[C@H](CO)[C@H](c4ccc(C#C[C@@H](C)O)cc4)[C@@H]3C2)c1,?,.,.
CN1c2ccc(-c3ccccc3F)cc2[C@H]2[C@H](CCN2C(=O)CN2CCOCC2)[C@@H]1CO,8.0,31.2,-23.2
Cc1cccc(-c2ccc(C3[C@@H]4CN(C(=O)Nc5ccc(F)cc5)C[C@H]3N4)cc2)c1 (stereo partly drawn),?,.,.
C[C@@H]1CN([C@H](C)CO)C(=O)c2cccc(NS(=O)(=O)c3ccc(F)cc3)c2O[C@H]1CN(C)C(=O)NC1CCCCC1,1.2,-0.2,1.4
CCCNC(=O)C[C@H]1CC[C@H]2[C@@H](COC[C@@H](O)CN2C(=O)Nc2c(C)noc2C)O1,6.6,6.2,0.4
CN1C(=O)c2cc(NC(=O)Nc3ccccc3F)ccc2OC[C@@H]2O[C@@H](CC(=O)NCCc3ccncc3)CC[C@@H]21,-1.9,-2.2,0.3
C[C@H](CO)N1C[C@H](C)[C@@H](CN(C)Cc2cccc(C(=O)O)c2)OCc2ccccc2-c2c(n(C)c3ccccc23)C1=O,-0.7,-5.5,4.8
O=C1N[C@@H](c2ccccc2)COCc2cn(nn2)CC[C@@H]1Cc1ccc(C(F)(F)F)cc1,-4.0,0.1,-4.1
O=C(c1ccccn1)N1CC2(C1)[C@@H](c1ccccc1)[C@H](CO)N2C(=O)C1CCC1,2.1,0.3,1.8
C[C@@H]1CN([C@@H](C)CO)C(=O)c2c(c3ccccc3n2C)-c2ccccc2CO[C@@H]1CN(C)S(=O)(=O)c1cn(C)cn1,26.8,16.4,10.4
COCCNC(=O)[C@H]1[C@H](CO)[C@H]2Cn3c(cccc3=O)[C@@H]1N2S(=O)(=O)c1ccccc1C,-5.1,-1.2,-3.9
O=C(Nc1ccccc1F)N1CCCCN2[C@H](C1)[C@@H](c1ccc(C#Cc3cccnc3)cc1)[C@@H]2CO,?,.,.
CC(C)CC#Cc1ccc([C@H]2[C@H](CO)N3C(=O)CN(C(=O)Nc4cc(F)ccc4F)C[C@@H]23)cc1,?,.,.
Cc1ccccc1S(=O)(=O)N1[C@@H]2CNC[C@H]1C2c1ccc(-c2cccnc2)cc1 (stereo partly drawn),17.7&27.0,8.8&0.3,8.9&26.8
CCCNC(=O)N1[C@@H](CO)[C@H](c2ccccc2)C12CN(C(=O)C1CCCCC1)C2,2.8,-7.8,10.6
COc1ccc(S(=O)(=O)Nc2ccc3c(c2)C(=O)N([C@@H](C)CO)C[C@@H](C)[C@@H](CN(C)C(=O)c2ccncc2)OCCCC[C@H](C)O3)cc1,-3.6,-5.2,1.6
COc1ccc(-c2ccc3c(c2)[C@H]2[C@H](CCN2C(=O)Cc2cccnc2)[C@@H](CO)N3C)cc1,0.9,-6.4,7.3
C[C@H](CO)N1C[C@H](C)[C@H](CN(C)C(=O)c2ccncc2)OCCCC[C@H](C)Oc2ccc(NS(=O)(=O)c3cn(C)cn3)cc2C1=O,-3.1,-3.2,0.2
O=C(C[C@H]1CC[C@H](NC(=O)c2ccc3c(c2)OCO3)[C@@H](CO)O1)NCc1ccc(Oc2ccccc2)cc1,?,.,.
CCCC#Cc1ccc([C@H]2[C@@H](CO)N(C(=O)C3CCOCC3)[C@H]2C#N)cc1,-3.7,-0.2,-3.5
# The listing continues.
SMILES,DUX4 txn inh,DUX4 txn inh difference,DUX4 txn inh control
CS(=O)(=O)Nc1ccc2c(c1)[C@H]1C[C@H](CC(=O)NCc3cccc(F)c3)O[C@@H](CO)[C@H]1O2,2.0,1.9,0.1
O=C(c1cnccn1)N1CC(=O)N2[C@H](C1)[C@H](c1ccc(C#CC3CC3)cc1)[C@@H]2CO,4.2,1.1,3.1
CNC[C@@H]1OCCCC[C@H](C)Oc2ccc(NC(=O)Nc3ccc(OC)cc3)cc2C(=O)N([C@@H](C)CO)C[C@@H]1C,0.4,-5.3,5.7
N#C[C@@H]1[C@H](c2ccccc2)[C@@H](CO)N1C(=O)Cc1ccccn1,-2.7,-4.7,2.0
CS(=O)(=O)Nc1ccc2c(c1)[C@H]1C[C@@H](CC(=O)NC3CCCC3)O[C@@H](CO)[C@H]1O2,7.4,1.5,5.9
COc1ccc(NC(=O)Nc2ccc3c(c2)C(=O)N([C@@H](C)CO)C[C@H](C)[C@@H](CN(C)C(=O)NC2CCCCC2)OCCCC[C@H](C)O3)cc1,3.1,-0.3,3.4
COCC(=O)N1CC(=O)N2[C@@H](CO)[C@@H](c3ccc(C#CCc4ccccc4)cc3)[C@@H]2C1,-7.5,-12.3,4.8
CCC(=O)Nc1ccc2c(c1)OC[C@H](C)N(Cc1ccccc1)C[C@@H](C)[C@H](OC)CN(C)C2=O,1.9,-3.9,5.8
CCc1csc(N2[C@H](CO)[C@@H](c3ccc(-c4cccc(F)c4)cc3)[C@@H]2C#N)n1,3.8,-0.6,4.5
O=C(NCC(F)(F)F)[C@H]1[C@H](CO)[C@H]2Cn3c(cccc3=O)[C@H]2N1C(=O)c1ccccc1F,-2.0,-3.4,1.5
Cc1noc(C)c1S(=O)(=O)N(C)C[C@H]1OCCCC[C@H](C)Oc2ccc(NS(=O)(=O)c3cccs3)cc2C(=O)N([C@@H](C)CO)C[C@@H]1C,0.5,-0.1,0.7
O=C(C[C@@H]1C=C[C@H](NC(=O)c2ccc3c(c2)OCO3)[C@@H](CO)O1)NCc1ccc(F)cc1,4.3,0.9,3.4
O=C([C@@H]1[C@@H](CO)[C@@H]2Cn3c(cccc3=O)[C@H]1N2S(=O)(=O)c1ccccc1F)N1CCOCC1,3.1,4.2,-1.1
CNC[C@H]1OCc2ccccc2-c2c(n(C)c3ccccc23)C(=O)N([C@H](C)CO)C[C@@H]1C,-3.0,-6.1,3.1
CC(C)[C@@H]1C(=O)NCCC=CC[C@@H](C)Oc2ccccc2C(=O)N1C (mixture of isomers),-6.6,-5.0,-1.7
CC(C)NC(=O)N(C)C[C@H]1Oc2ccc(NC(=O)Nc3ccc4c(c3)OCO4)cc2CC(=O)N([C@@H](C)CO)C[C@H]1C,0.0,2.2,-2.2
CC(=O)N1[C@@H]2c3cccc(=O)n3C[C@@H]2[C@@H](CO)[C@@H]1C(=O)N[C@@H](C)c1ccccc1,4.7,-1.3,6.0
COc1ccc2c3c(n(C)c2c1)[C@@H](CO)N(C(=O)C1CCCC1)CC31CN(C(=O)CC2CC2)C1,11.5,4.8,6.7
C[C@@H]1CN([C@H](C)CO)C(=O)c2c(c3ccccc3n2C)-c2ccccc2CO[C@@H]1CN(C)C(=O)NC1CCCCC1,0.3,11.0,-10.7
C[C@H](CO)N1C[C@H](C)[C@@H](CN(C)Cc2ccc(-c3ccccc3)cc2)Oc2ccc(N(C)C)cc2CC1=O,-0.6,0.1,-0.7
O=C(C[C@H]1C[C@@H]2c3cc(NC(=O)c4cccnc4)ccc3O[C@@H]2[C@@H](CO)O1)NCC(F)(F)F,7.4,7.8,-0.4
CCCC(=O)Nc1ccc2c(c1)C(=O)N(C)C[C@H](OC)[C@@H](C)CN(C(=O)CC1CC1)[C@H](C)CO2,0.3,-1.9,2.3
O=C(C[C@@H]1CC[C@H]2[C@@H](COC[C@H](O)CN2C(=O)c2cnccn2)O1)NCc1ccc(Oc2ccccc2)cc1,3.5,2.2,1.4
C[C@H]1CN([C@@H](C)CO)S(=O)(=O)c2ccc(C#CC3CCCC3)cc2O[C@H]1CN(C)C(=O)Cc1ccccc1,4.0,0.1,3.9
C[C@@H]1CN([C@H](C)CO)C(=O)c2cc(NS(=O)(=O)c3cccs3)ccc2O[C@@H](C)CCCCO[C@H]1CN(C)Cc1ccc(Cl)c(Cl)c1,-2.7,-3.6,0.9
# Further structures follow:
SMILES,DUX4 txn inh,DUX4 txn inh difference,DUX4 txn inh control
CC(C)(C)[S@](=O)N1Cc2cc(C(=O)O)nc(-c3cccc(-c4ccc(F)cc4)c3)c2[C@@H]1CCO,-1.5,-3.0,1.5
OC[C@@H]1Nc2ccc(-c3ccccc3)cc2[C@H]2[C@@H]1CCN2Cc1ccccc1F,?,.,.
CO[C@@H](CN(C)C(=O)c1ccccc1F)[C@@H](C)CN([C@H](C)CO)S(=O)(=O)c1ccc(C)cc1,-3.9,-2.2,-1.7
O=C(Cc1ccccc1)N1C[C@H]2[C@@H](c3ccccc31)[C@H](CO)N2C(=O)c1ccc(F)cc1,0.6,-2.2,2.8
C[C@H](CO)N1C[C@H](C)[C@H](CN(C)Cc2ccc3c(c2)OCCN3C)OCc2ccccc2-c2c(n(C)c3ccccc23)C1=O,-6.5,-9.1,2.6
O=C(NCc1cccc(F)c1)[C@H]1[C@H](CO)[C@H]2Cn3c(ccc(-c4ccncc4)c3=O)[C@@H]1N2CC1CC1,-2.8,0.0,-2.8
C[C@@H]1CN([C@@H](C)CO)C(=O)CCCn2nncc2CO[C@H]1CN(C)Cc1ccc(C(=O)Nc2ccccc2N)cc1,-25.4*,-41.6*,16.3*
CC(C)C#Cc1ccc([C@@H]2[C@H](C#N)N(C(=O)C3CCC3)[C@H]2CO)cc1,-3.0,1.1,-4.1
Cc1cccc(S(=O)(=O)N2C[C@@H]3N[C@H](C2)C3c2ccc(-c3cccc(C(=O)N(C)C)c3)cc2)c1 (stereo partly drawn),?,.,.
O=C(C[C@H]1C[C@H]2c3cc(NC(=O)c4cccnc4)ccc3O[C@H]2[C@H](CO)O1)NCc1cc(F)ccc1F,-5.2,0.9,-6.1
CC(=O)N1[C@@H]2Cn3c(cccc3=O)[C@H]1[C@@H](C(=O)NCC1CCCCC1)[C@@H]2CO,7.4,0.0,7.4
CC(C)C(=O)Nc1ccc2c(c1)C(=O)N(C)[C@@H]1CC[C@H](CC(=O)NCc3ccc(F)cc3)O[C@H]1CO2,4.1,-2.5,6.6
CCC(=O)N1CC2(C1)CN(Cc1cccc(Cl)c1)[C@@H](CO)c1c2c2ccc(OC)cc2n1C,?,.,.
CCCC(=O)Nc1ccc2c(c1)OC[C@H](C)N(C(=O)CN(C)C)C[C@@H](C)[C@H](OC)CN(C)C2=O,-1.3,-5.4,4.1
C[C@H](CO)N1C[C@H](C)[C@@H](CN(C)C(=O)NC2CCCCC2)Oc2c(NC(=O)c3cnccn3)cccc2C1=O,2.9,1.3,1.6
COc1ccc2c3c(n(C)c2c1)[C@@H](CO)N(C(=O)Nc1ccc(F)cc1)CC31CCN(C(=O)Nc2c(C)noc2C)CC1,13.9,4.8,9.2
CCCNC(=O)N1CCC2(CC1)CN(C(=O)NC1CCCC1)[C@H](CO)c1[nH]c3cc(OC)ccc3c12,2.7,8.3,-5.7
CO[C@@H](CN(C)Cc1cc(F)ccc1F)[C@H](C)CN(C(=O)Nc1ccc(F)cc1)[C@H](C)CO,-2.9,-0.3,-2.6
O=C(Cc1ccccn1)N1CC(=O)N2[C@H](CO)[C@H](c3ccc(-c4ccc(F)cc4)cc3)[C@@H]2C1,13.2,7.2,6.0
C[C@H](CO)N1C[C@H](C)[C@@H](CN(C)C(=O)C2CCOCC2)Oc2ncc(/C=C/c3ccccc3)cc2C1=O,-0.9,-2.8,1.9
COc1cccc(CN2[C@H](CO)[C@@H](c3ccccc3)C23CN(C(=O)C2CC2)C3)c1,-6.4,-11.8,5.4
COc1ccccc1S(=O)(=O)N(C)C[C@H]1OCc2cn(nn2)CCCC(=O)N([C@@H](C)CO)C[C@H]1C,-0.1,6.1,-6.1
CCC(=O)N1CC2(C1)CN(Cc1ccccn1)[C@H](CO)c1[nH]c3cc(OC)ccc3c12,16.5,-9.8,26.3
COCC(=O)N1[C@H](C#N)[C@H](c2ccccc2-c2ccc(C)cc2)[C@H]1CO,7.7,2.0,5.8
O=C(Cc1ccccn1)N1[C@@H]2CNc3ccccc3[C@@H]2[C@@H]1CO,-0.3,0.1,-0.4
C[C@@H]1CN([C@H](C)CO)C(=O)c2cc(NC(=O)NC3CCCCC3)ccc2O[C@@H](C)CCCCO[C@H]1CN(C)C(=O)c1ccncc1,-1.9,-3.3,1.4
CCC(=O)N1CCCCN2[C@H](CO)[C@@H](c3ccc(/C=C/c4ccccc4)cc3)[C@@H]2C1,?,.,.

# 3 of the entries above in order of the DUX4 txn inh control value, smallest number first:
SMILES,DUX4 txn inh,DUX4 txn inh difference,DUX4 txn inh control
O=C(C[C@H]1C[C@H]2c3cc(NC(=O)c4cccnc4)ccc3O[C@H]2[C@H](CO)O1)NCc1cc(F)ccc1F,-5.2,0.9,-6.1
O=C(Cc1ccccn1)N1CC(=O)N2[C@H](CO)[C@H](c3ccc(-c4ccc(F)cc4)cc3)[C@@H]2C1,13.2,7.2,6.0
COc1ccc2c3c(n(C)c2c1)[C@@H](CO)N(C(=O)Nc1ccc(F)cc1)CC31CCN(C(=O)Nc2c(C)noc2C)CC1,13.9,4.8,9.2

# Complete entries as entered above:
# `COc1cccc(CN2[C@H](CO)[C@@H](c3ccccc3)C23CN(C(=O)C2CC2)C3)c1` is listed as DUX4 txn inh = -6.4; DUX4 txn inh difference = -11.8; DUX4 txn inh control = 5.4
# `O=C(Cc1ccccc1)N1C[C@H]2[C@@H](c3ccccc31)[C@H](CO)N2C(=O)c1ccc(F)cc1` is listed as DUX4 txn inh = 0.6; DUX4 txn inh difference = -2.2; DUX4 txn inh control = 2.8

# A portion of the library (hit frequency here may not be typical).
